Screening data (PubChem BioAssay)
AmpC inh no det – Promiscuous and Specific Inhibitors of AmpC Beta-Lactamase (assay without detergent); AmpC nitrocefin hydrolysis, absorbance 480 nm, no detergent; potencies from a single point are estimates; Potency, µM (top dose mostly 28.7 µM), without a hit: at the top dose activity change, negative = inhibition; P00811; 71,000 tested, 1.8% active; active = falling curve, for most hits resting on a single point; inconclusive = weak or doubtful change; inactive = flat or rising curve; further: % of control where 0% means no effect; about half of the hits show no inhibition at the top dose; a quarter of the inactives give rising signals
Target sequence (P00811 whole entry, looked up): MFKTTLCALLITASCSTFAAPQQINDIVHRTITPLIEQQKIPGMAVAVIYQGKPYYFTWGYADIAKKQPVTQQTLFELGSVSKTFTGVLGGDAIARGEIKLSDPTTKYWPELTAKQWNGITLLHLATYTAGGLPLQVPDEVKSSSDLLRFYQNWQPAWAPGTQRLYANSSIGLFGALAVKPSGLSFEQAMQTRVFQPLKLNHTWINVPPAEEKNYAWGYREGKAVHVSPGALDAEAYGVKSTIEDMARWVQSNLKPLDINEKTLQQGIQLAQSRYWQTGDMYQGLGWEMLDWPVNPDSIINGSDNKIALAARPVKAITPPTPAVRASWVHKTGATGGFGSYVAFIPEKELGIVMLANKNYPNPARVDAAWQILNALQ
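Enzyme, pH 7.0 phosphate. Compound titrations were pre-incubated with AmpC for 15 min at room temperature before nitrocefin (stock 800 uM) addition; product formation was recorded at 480 nm every 20 s for 4 min.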
Numbers without * were called inactive; u = inconclusive; & = joins results of further samples; [ ] = remark or other dose. Potency means the concentration at half of the fitted maximal effect. An excerpt. The share of hits here may be higher or lower than overall.

SMILES | AmpC inh no det
O=C1CCCN1CCC1CCN(C(=O)Nc2ccccc2)CC1 | 6%
O=C(CSc1ncnc2c1cnn2-c1ccccc1)Nc1ccc2c(c1)OCO2 | -20%
CCc1cc(Br)ccc1NC(=O)C1CCCO1 (stereo not drawn) | 5%
CCOc1ccc2[nH]c(=O)c(CN(C(=O)N3CCOCC3)C3CC3)cc2c1 | 26%
CCOc1ccc(S(=O)(=O)n2nnc3ccccc32)cc1C | 3%
Cc1cc(OCC(=O)O)c2cccc(C)c2n1 | -6%
Cc1ccc(C(=O)CC(C(=O)O)n2ccc(C)n2)cc1 (stereo not drawn) | 0%
CCOC(=O)CC(C(=O)OCC)P(=O)(c1ccccc1)c1ccccc1 (stereo not drawn) | 44%
CS(=O)(=O)N1CCC[C@@]2(CCN(c3ccncc3)C2)C1 | 2%
COc1ccc2cc(C(=O)OC(C)C)sc(=O)c2c1OC | 34%
CC(C)[C@@H](CC(=O)N[C@@H]1CCNC[C@H]1C(=O)N[C@H](CC(=O)N[C@@H](CCC(=O)O)CC(=O)O)Cc1c[nH]c2ccccc12)NC(=O)C[C@H](Cc1c[nH]c2ccccc12)NC(=O)[C@@H]1CCCC[C@H]1N | 139%
NC(=O)c1ccccc1NC(=O)CN1CCOCC1 | 2%
CCC(O)CNc1nc(-n2nc(C)cc2C)nc2sc3c(c12)CCCC3 (stereo not drawn) | 42%
COc1cccc(C(=O)Cn2c(Br)nc3c2c(=O)n(C)c(=O)n3C)c1 | 28%
Cc1cc(C)nc(NC(=O)c2cnc3sccn3c2=O)n1 | -8%
COc1cc(CO)cc(Br)c1OCc1cccnc1 | 6%
Cc1cc(Cl)ccc1N=Cc1c(O)n(C)c(=O)n(C)c1=O | 5%
Cc1ccc(F)cc1NC(=O)c1cccc2nccnc12 | -2%
CCC(C)N(CCNC(=O)CC1Oc2ccccc2NC1=O)C1CCCCC1 (stereo not drawn) | 4µM*[single pt active]
CC(=O)N1CCN(c2nc3cc4c(cc3nc2NS(=O)(=O)c2ccccc2)OCCO4)CC1 | -1%
CCOC(=O)CSc1ccc2nnc(-c3ccncc3)n2n1 | 2%
CCN(CC)CCNC(=O)c1c(O)c2cc(OC)c(OC)cc2[nH]c1=O | 27%
CCOc1ccc(-n2nc(C(=O)NCCOC)c3ccccc3c2=O)cc1 | 32%
COc1ccc(-c2cc3n(n2)CCc2nc4ccccc4n2-3)cc1 | 131%
O=C1CC[C@H](N2C(=O)c3ccccc3C2=O)C(=O)N1 | 1%
Continued:
SMILES | AmpC inh no det
O=C(CN1CCCC1)Nc1ccc(Oc2ccc(NC(=O)CN3CCCC3)cc2)cc1 | 11%
CCCCN(C(=O)CNC(=O)c1ccco1)C(C(=O)NC1CCCCC1)c1ccc(OC)cc1OC (stereo not drawn) | 97%
C=CCOc1nc(N(C)C)nc(N(C)C)n1 | 5%
CN(C1CCCCC1)S(=O)(=O)c1ccc(-n2cnnn2)cc1 | 9%
CCOC(=O)N1CCN(Cc2nc3c(c(=O)n(C)c(=O)n3C)n2Cc2cccc(C)c2)CC1 | 132%
Cc1cc(NC(=O)CCC(=O)N(c2ccccc2)C(C(=O)NCC2CCCO2)c2cccnc2)no1 (stereo not drawn) | 27%
Cc1ccc2c(c1)cc(CN(Cc1ccccc1)C(=O)N(C)C)c1nnnn12 | 107%
CC[C@@]12CCCN3CCc4c(n(c5ccccc45)C(=O)C1)[C@H]32 | 11%[5.75 µM]
NC(CC(=O)O)c1cccc(OCc2ccccc2)c1 (stereo not drawn) | 1%
CC(CC(=O)O)NCC1COc2ccccc2O1 (stereo not drawn) | -7%
COc1ccc(N)c(OC)c1 | -9%
CCc1cccc(NC(=O)CCS(=O)(=O)c2cccc3nonc23)c1 | -1%
CCOc1ccc(Cn2c(=O)oc3ccc(C)cc32)cc1OC | 63%
O=C(CN(Cc1ccccc1F)S(=O)(=O)c1ccc(Cl)cc1)NCCCO | 85%
c1ccc(Cn2ncc3c(NCc4ccco4)ncnc32)cc1 | 4%
O=C(O)CCCCCNC(=O)c1ccncc1 | -9%
O=C(C1CCCN(Cc2ccncc2)C1)N1CCc2ccccc2C1 (stereo not drawn) | 0%
c1nc(NCCN2CCOCC2)c2sc3nc(N4CCOCC4)c4c(c3c2n1)CCC4 | 2%
COc1cc(/C=C/c2ccccc2)oc(=O)c1 | 10%
O=C1CC(c2ccc(Cl)c(Cl)c2)CC(O)=C1C=NCCN1CCNCC1 (stereo not drawn) | 64%
Cc1cccc(OCCOCCN2CCOCC2)c1C | 18%
CCOc1cc2[nH]c(=S)n(CCCN3CCOCC3)c(=O)c2cc1OCC | 41%
COC(=O)CSc1nnc(CNC(=O)Cc2ccccc2)n1-c1ccccc1OC | 20%
CCOc1ccccc1C1CC(=O)NC2=C1C(=O)CCC2 (stereo not drawn) | 5%
C[C@H](CCC(=O)O)[C@H]1CC[C@]2(C)[C@@H]3C(=O)C[C@H]4C(C)(C)[C@@H](O)CC[C@]4(C)[C@H]3C(=O)C[C@@]12C | -2%[5.75 µM]
Going on with the list.
SMILES | AmpC inh no det
CC1(C)Cc2c(c(=S)nc(-c3ccccc3)n2CCO)CO1 | -11%
O=Nc1c(-c2c(O)[nH]c3ccccc23)[nH]c2ccccc12 | -12%&-10%
COc1ccc(CN/C(C)=C(/C#N)C(N)=O)cc1OC | -3%
Cc1c(C(=O)NCc2ccccc2)oc2ccc(S(=O)(=O)N3CCC4(CC3)OCCO4)cc12 | 78%
COc1cc(C(O)c2nc3ccccc3n2C)cc(OC)c1OC (stereo not drawn) | 17%
Cc1occc1C(=O)N1CCCc2ccccc21 | 8%
O=c1c2cnn(-c3ccccc3)c2nc(-c2ccco2)n1-c1ccccc1 | 37%
C=COCCn1c(-c2nonc2N)nc2ccccc21 | -5%
c1ccc(-n2c(Cc3cn4ccsc4n3)nnc2N2CCOCC2)cc1 | 10%
COc1ccc(OC)c2[nH]c(=O)c(CCNC(=O)c3ccc(S(=O)(=O)N(C)C)cc3)cc12 | 61%
O=C(Oc1ccccc1C(=O)N1CCOCC1)c1ccc(Br)cc1 | 56%
CCSc1nnc(NC(=O)CSc2nc3c(c(=O)n2-c2ccccc2)SCC3)s1 | 6%
CCCCc1ccc(C2C(C#N)=C(N)SC(N)=C2C#N)s1 | u
Cc1ccc(N2CCN(C(=O)CNS(=O)(=O)c3ccc(Br)s3)CC2C)cc1 (stereo not drawn) | 16%
COc1cccc(Cn2c(=O)c(-c3ccccc3)nc3cnc(OC)nc32)c1 | 24%
CC(=O)N(C)C1(c2nnnn2CCOC(=O)Nc2ccc(Cl)cc2)CCCCC1 | 81%
CCC(C(=O)Nc1ncccn1)(C(F)(F)F)C(F)(F)F | -2%
O=c1[nH]c2cc3c(cc2cc1CN(Cc1ccccc1)Cc1nnnn1Cc1ccco1)OCCO3 | 19%
N#Cc1nc(COc2ccc(Cl)cc2)oc1N1CCCC1 | 21%
C/C(=N\O)C(=O)NCc1ccncc1 | -2%
COc1ccccc1CN1C(=S)SC(C)(C)C1NO (stereo not drawn) | -2%
CCCn1c(SCC(=O)N2CCCCC2)nnc1-c1ccco1 | 21%
O=C(Nc1ccc2c(c1)OCCO2)C1CCN(c2nnnn2-c2ccccc2)CC1 | 22%
O=C(Cn1cc(C(=S)N2CCOCC2)c2ccccc21)N1CCOCC1 | 9%
COc1ccc(Oc2ncc3nc(CCc4ccccc4)c(=O)n(CCC#N)c3n2)cc1 | 35%

Four compounds already listed, sorted by SMILES length, smallest number first:
SMILES | AmpC inh no det
CCCn1c(SCC(=O)N2CCCCC2)nnc1-c1ccco1 | 21%
CCC(C(=O)Nc1ncccn1)(C(F)(F)F)C(F)(F)F | -2%
CC1(C)Cc2c(c(=S)nc(-c3ccccc3)n2CCO)CO1 | -11%
COc1cccc(Cn2c(=O)c(-c3ccccc3)nc3cnc(OC)nc32)c1 | 24%

More compounds:
SMILES | AmpC inh no det
O=C(Cc1c(O)c2ccccc2[nH]c1=O)NC1CCCCCC1 | -12%
CN(c1ccccc1)S(=O)(=O)c1ccc(C(=O)Nc2nnc(-c3ccc(F)cc3)o2)cc1 | 10µM*
CCOc1nonc1C(=N)/C(C(C)=O)=C(\C)O | -9%
CC1CCCCN1C(=O)c1cc(-c2ccc(Cl)c(Cl)c2)on1 (stereo not drawn) | 49%
Cn1c(=O)c2c(nc(N3CCOCC3)n2CCCNC2=NCCC2)n(C)c1=O | 9%
COc1ccc(NC(C)=O)cc1NC(=O)CCn1c(=O)sc2ccccc21 | -10%
Cc1ccc2nc(NC(=O)C3CCN(S(=O)(=O)c4cccc5nsnc45)CC3)sc2c1 | -20%
COCCn1c(C(C)C)nc2oc3ccccc3c(=O)c2c1=O | 2%
N#Cc1nc(Cc2ccccc2)oc1NCCc1ccccc1 | 3%
CCNc1ncc2ncc(=O)n(C3CC3)c2n1 | -6%
COC(=O)[C@@]1(Cc2ccc(OC)cc2)[C@H]2c3cc(C(=O)N4CCCC4)n(CCc4ccc(OC)c(Br)c4)c3C[C@H]2CN1C(=O)c1ccccc1 | 130%
COC(=O)C1=C(C(=O)c2ccccc2)C(c2ccc(O)c(OC)c2)n2nnnc2N1 (stereo not drawn) | -5%
O=C(Cc1ccc(Br)cc1)N1CCN(Cc2ccccc2)CC1 | 81%
O=C(CN1CC(c2ccccc2)CC1=O)Nc1ccc2c(c1)OCO2 (stereo not drawn) | 17%
COC(=O)c1ccc(Cl)c(NC(=O)CSc2ncn[nH]2)c1 | -8%
NS(=O)(=O)c1ccc(CCNC(=O)c2cccnc2)cc1 | -8%
Cc1ccc(S(=O)(=O)C2(C(=O)N3CCCCCC3)CC2)cc1 | 12%
O=S(=O)(Cc1ccccc1)NCc1ccccn1 | -8%
CC(C)C[C@@H](CC(=O)N[C@H](CC(=O)N[C@@H]1CCCC[C@H]1C(=O)N[C@H](CC(=O)N[C@@H](CCC(=O)O)CC(=O)O)CC(C)C)C(C)C)NC(=O)[C@@H]1CNCC[C@H]1N | 120%
NC(N)=N[C@H](CCC(=O)O)C(=O)O | 7%
O=S(=O)(NCCCCCNS(=O)(=O)c1ccccc1)c1ccccc1 | -20%
O=C(c1ccc(Cl)cc1Cl)C1(n2cncn2)Oc2ccccc2C1O (stereo not drawn) | 21%
COc1ccc(OC)c(S(=O)(=O)N(C)CC(=O)N2CCN(c3ccc(F)cc3)CC2)c1 | 109%
O=c1c2ccccc2nnn1CSc1nnc2sc3ccccc3n12 | -10%
COC(=O)c1ccc(CSc2nc(-c3ccccc3)cs2)o1 | 4%
More structures.
SMILES | AmpC inh no det
Cc1ccccc1CS(=O)(=O)Cc1ccc(C(=O)NCc2ccccn2)o1 | 11%
CCn1c(SCC(=O)N2CCCc3ccccc32)nnc1-c1ccco1 | 1%
CCN(C(=O)CSc1nc2nc(C)cc(C)n2n1)c1cccc(C)c1 | 32%
NC(=O)N/N=C/c1ccc([N+](=O)[O-])o1 | -6%
Cc1nnc(SCc2ccc(F)cc2)s1 | 2%
CCn1c(=O)c(C(=O)NCc2ccc(OC)c(OC)c2)c(O)c2ccccc21 | 84%
CCC(c1ccccc1)c1nc(-c2ccccn2)no1 (stereo not drawn) | 22%
O=c1[nH]c(CN2CCN(Cc3ccc4c(c3)OCO4)CC2)nc2ccccc12 | 12%
CCc1cccc(C)c1NC(=O)c1cc(C)oc1C | -3%
CCCCNC(=O)c1sc(=S)n2c1[nH]c(=O)c1ccccc12 | -11%
Cc1ccc(-c2cc(C(=O)Nc3cc(C)ccc3C)[nH]n2)c(O)c1 | -21%
COC(=O)C1CC1C(NC(=O)[C@@H]1CCCN1)c1ccccc1 (stereo partly drawn) | 101%
COc1cccc(C(=O)NC2=NCCS2)c1OC | -11%
Cc1cc(NC(=O)c2cc3ccccc3o2)cc(C)c1OCC(=O)N1CCOCC1 | 110%
COc1ccccc1NC(=O)CS(=O)(=O)c1cccc2nsnc12 | -13%
Cn1c(C(=O)NCc2ccccn2)cc2c(=O)n3ccccc3nc21 | 18%
Cc1ccc(-c2nnc(N3CCN(C(=O)CSc4ncn[nH]4)CC3)c3ccccc23)cc1 | 25%
Nc1nc(CN2CCN(c3ccccn3)CC2)nc(Nc2ccc(Cl)cc2)n1 | 74%

Filtered by structure, those above containing an NH in an aromatic ring
SMILES | AmpC inh no det
CCOc1ccc2[nH]c(=O)c(CN(C(=O)N3CCOCC3)C3CC3)cc2c1 | 26%
CC(C)[C@@H](CC(=O)N[C@@H]1CCNC[C@H]1C(=O)N[C@H](CC(=O)N[C@@H](CCC(=O)O)CC(=O)O)Cc1c[nH]c2ccccc12)NC(=O)C[C@H](Cc1c[nH]c2ccccc12)NC(=O)[C@@H]1CCCC[C@H]1N | 139%
CCN(CC)CCNC(=O)c1c(O)c2cc(OC)c(OC)cc2[nH]c1=O | 27%
CCOc1cc2[nH]c(=S)n(CCCN3CCOCC3)c(=O)c2cc1OCC | 41%
O=Nc1c(-c2c(O)[nH]c3ccccc23)[nH]c2ccccc12 | -12%&-10%
COc1ccc(OC)c2[nH]c(=O)c(CCNC(=O)c3ccc(S(=O)(=O)N(C)C)cc3)cc12 | 61%
O=c1[nH]c2cc3c(cc2cc1CN(Cc1ccccc1)Cc1nnnn1Cc1ccco1)OCCO3 | 19%
O=C(Cc1c(O)c2ccccc2[nH]c1=O)NC1CCCCCC1 | -12%
COC(=O)c1ccc(Cl)c(NC(=O)CSc2ncn[nH]2)c1 | -8%
O=c1[nH]c(CN2CCN(Cc3ccc4c(c3)OCO4)CC2)nc2ccccc12 | 12%
CCCCNC(=O)c1sc(=S)n2c1[nH]c(=O)c1ccccc12 | -11%
Cc1ccc(-c2cc(C(=O)Nc3cc(C)ccc3C)[nH]n2)c(O)c1 | -21%
Cc1ccc(-c2nnc(N3CCN(C(=O)CSc4ncn[nH]4)CC3)c3ccccc23)cc1 | 25%
